Assay outcomes deposited in PubChem by National Center for Advancing Translational Sciences (NCATS).
EPAC2 antag = human EPAC2 antagonism, validation; Q8WZA2; EPAC2 Rap1B BODIPY-GDP exchange, fluorescence; Potency, µM (highest dose often 112 µM), for the others: at the top dose activity, negative = inhibition, hits mostly inhibitors; hit rate 1.7% among 16,000; active = well fitted inhibition curve with a large enough effect; inconclusive = small, poorly fitted or top-dose-only effect; inactive = no such curve, though single readings can be large or run the other way;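 also: 100% = activation by cAMP agonist control; nearly all actives have a fitted effect of over 40% in size; the record reuses the description of the EPAC1 agonist screen; inactives centre near -10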
Target sequence (Q8WZA2 whole entry, looked up): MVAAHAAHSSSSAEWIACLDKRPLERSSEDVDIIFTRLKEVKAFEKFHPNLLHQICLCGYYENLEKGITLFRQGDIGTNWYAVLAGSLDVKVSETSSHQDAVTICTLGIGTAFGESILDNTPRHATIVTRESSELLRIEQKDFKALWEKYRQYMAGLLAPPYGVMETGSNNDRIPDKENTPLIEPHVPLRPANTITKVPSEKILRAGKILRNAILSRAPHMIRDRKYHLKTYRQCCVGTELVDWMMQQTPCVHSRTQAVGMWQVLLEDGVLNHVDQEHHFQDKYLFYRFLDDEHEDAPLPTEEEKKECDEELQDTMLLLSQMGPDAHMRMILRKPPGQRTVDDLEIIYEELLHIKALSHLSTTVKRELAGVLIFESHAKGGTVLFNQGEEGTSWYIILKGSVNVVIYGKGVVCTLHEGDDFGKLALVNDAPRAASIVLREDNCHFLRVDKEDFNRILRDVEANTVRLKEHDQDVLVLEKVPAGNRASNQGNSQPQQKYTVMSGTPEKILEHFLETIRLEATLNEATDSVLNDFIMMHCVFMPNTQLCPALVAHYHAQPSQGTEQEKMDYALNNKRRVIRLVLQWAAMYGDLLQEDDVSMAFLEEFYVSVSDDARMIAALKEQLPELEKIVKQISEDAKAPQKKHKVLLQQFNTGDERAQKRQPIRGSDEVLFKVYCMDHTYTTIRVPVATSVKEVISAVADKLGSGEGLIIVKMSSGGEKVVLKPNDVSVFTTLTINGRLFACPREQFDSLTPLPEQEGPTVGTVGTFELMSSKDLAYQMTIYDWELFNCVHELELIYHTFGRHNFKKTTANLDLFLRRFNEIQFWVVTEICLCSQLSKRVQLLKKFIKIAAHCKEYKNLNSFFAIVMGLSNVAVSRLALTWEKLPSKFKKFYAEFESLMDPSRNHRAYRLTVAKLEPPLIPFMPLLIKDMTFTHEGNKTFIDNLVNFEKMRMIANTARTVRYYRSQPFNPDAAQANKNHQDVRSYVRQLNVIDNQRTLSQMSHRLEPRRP
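Fluorescent exchange read-out: 100 nM EPAC2 with 250 nM RAP1B–BODIPY-GDP and 50 uM GDP; BODIPY-GDP release lowers fluorescence. Read at 480/540 nm every 5 min for 30 min at room temperature; normalized to 6.5 mM cAMP.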
* hit, by the source's call; ? = inconclusive; & = joins results of further samples; ! = repeats disagree; [ ] = another dose, or the depositor's remark. Potency is read from the fitted curve at half-maximal effect. Not all compounds are listed; count on the stated rates, not on these rows.

SMILES	EPAC2 antag
CN1C2CC(OC(=O)C(CO)c3ccccc3)CC1C(O)C2 (stereo not drawn)	-6%
COP(=S)(OC)Oc1ccc(S(N)(=O)=O)cc1	5%
CC(=O)N1CC[N+](C)(C)CC1	?
O=C1C=C2C(=CCOC2O)O1 (stereo not drawn)	-5%
CCC1(c2ccc(N)cc2)CCC(=O)NC1=O (stereo not drawn)	-3%&21%&-11%
C[C@H]1O[C@@H](O[C@H]2[C@@H](O)C[C@H](O[C@H]3[C@@H](O)C[C@H](O[C@H]4CC[C@]5(C)C6CC[C@]7(C)[C@@H](C8=CC(=O)OC8)CC[C@]7(O)C6CC[C@@H]5C4)O[C@@H]3C)O[C@@H]2C)C[C@H](O)[C@@H]1O (stereo partly drawn)	-12%
CCCCCCCCCCCCCCCC(=O)OC[C@H](COP(=O)([O-])OCC[N+](C)(C)C)OC(C)=O	-8%[11.4 µM]
Clc1ccc(C2CC3CCC2N3)cn1 (stereo not drawn)	-2%
CC1C(=O)OC2C(O)C34C5OC(=O)[C@@]3(OC3OC(=O)[C@H](O)[C@]34C(C(C)(C)C)C5O)[C@]12O (stereo partly drawn)	-10%
CN1C(=O)CC(=O)N(c2ccccc2)c2cc(Cl)ccc21	27%
CN(C)C1C(=O)C(C(N)=O)=C(O)[C@@]2(O)C(=O)C3=C(O)c4c(O)cccc4[C@](C)(O)C3C(O)C12 (stereo partly drawn)	3%
NP(N)(=O)NC(=O)c1ccc(F)cc1	13%
CCCn1c(=O)c2[nH]c(C3CCCC3)nc2n(CCCOC(=O)c2ccc(S(=O)(=O)F)cc2)c1=O	-6%
CC[N+](CC)(CCCNC1=CC(=O)C(NCCC[N+](CC)(CC)Cc2ccccc2)=CC1=O)Cc1ccccc1	-7%&-18%
NCC(CS(=O)(=O)O)c1ccc(Cl)cc1 (stereo not drawn)	5%
CCCN1CC[C@@H]2c3cc(O)ccc3CC[C@@H]21	-17%
CCC1(C2=NCCN2)Cc2ccccc2O1 (stereo not drawn)	-9%&-14%&-5%
c1ccc2sc(C3(N4CCCC4)CCCCC3)cc2c1	-13%
C[C@H](NC(=O)[C@@H](N)Cc1ccc(O)cc1)C(=O)NCC(=O)N(C)[C@@H](Cc1ccccc1)C(=O)N[C@H](CO)CCS(C)=O (stereo partly drawn)	23%[11.4 µM]
COc1ccc2c(c1)[C@@]13CCCCC1[C@@H](C2)N(C)CC3 (stereo partly drawn)	-8%
C#CC(C)(O)CC (stereo not drawn)	-5%
O=C1CCO1	-10%&-17%
CCCSP(=O)(OCC)SCCC	-6%[239 µM]
CC(N)[C@H](O)c1ccc(O)c(O)c1 (stereo partly drawn)	30%
N=C(N)c1ccc(CS(=O)(=O)F)cc1	20%

Exported in markdown: entries from further up.
| compound | EPAC2 antag |
| --- | --- |
| CCCSP(=O)(OCC)SCCC | -6%[239 µM] |
| NP(N)(=O)NC(=O)c1ccc(F)cc1 | 13% |

Further compounds:
SMILES	EPAC2 antag
CN1CC[C@@]2(C)c3cc(O)ccc3N(C)C12 (stereo partly drawn)	4%
COc1cc(CC(C)N)cc(OC)c1OC (stereo not drawn)	5%[239 µM]
C[N+]1(C)CCc2cc3c(cc2[C@H]1[C@@H]1OC(=O)c2c1ccc1c2OCO1)OCO3	-15%
N#CC(C#N)=Cc1ccc([N+](=O)[O-])c(O)c1	-25%[239 µM]
CN1C(=O)CCS(=O)(=O)[C@H]1c1ccc(Cl)cc1	-25%
ClC(Cl)(Cl)Cl	-1%
CN1CC[C@@]23CCCCC2C1Cc1ccc(O)cc13 (stereo partly drawn)	17%
c1ccc(C2CNCc3ccccc32)cc1 (stereo not drawn)	-11%
CC1=C(O)C(=O)C=C2C1=CC=C1[C@]2(C)CC[C@@]2(C)C3C[C@](C)(C(=O)O)CC[C@@]3(C)CC[C@@]12C (stereo partly drawn)	-29%
NC(N)=NCCCCCCCCCCN=C(N)N	-2%&-5%
CCN1C[C@@]2(COC)C3[C@@H](OC)C4[C@@H]1C3([C@@H]1C[C@]3(O)[C@H](OC(=O)c5ccccc5)[C@@H]1[C@]4(OC(C)=O)[C@@H](O)[C@@H]3OC)[C@H](OC)C[C@H]2O	-13%
CC12NC(Cc3ccccc31)c1ccccc12 (stereo not drawn)	-27%
CCCC[C@H]1C(=O)O[C@H](C)[C@H](NC(=O)c2cccc(NC=O)c2OC)C(=O)O[C@@H](C)[C@@H]1OC(=O)CC(C)C	?
CCN1C[C@]2(C)CC[C@H](OC)[C@]34C5C[C@@H]6CC[C@@](O)(C5C(=O)O6)C(C13)[C@@H](OC(=O)c1ccccc1)C24	8%
C/C=C1/CN2CC[C@]34C(=C(C=O)[C@H]1C[C@@H]23)Nc1ccccc14	-14%
Cc1ccc(C(=O)CN2CCOCC2)cc1	?
NC(C(=O)O)c1cc(=O)[nH]o1 (stereo not drawn)	-16%&3%
COc1ccc2c(c1OC)CN1CCc3cc4c(cc3C1C2)OCO4 (stereo not drawn)	?
CCOC(=O)[C@]12Cc3ccsc3[C@H]1N(Cc1ccccc1)C(=O)c1ccccc12	56µM*
C/C(O)=C(\C#N)C(=O)Nc1cc(Br)ccc1Br	-20%
C[C@]12Cc3nonc3C[C@@H]1CC[C@@H]1[C@@H]2CC[C@@]2(C)[C@H]1CC[C@]2(C)O	3%
CC(N)Cc1ccc(O)cc1 (stereo not drawn)	-30%
CC1(C)[C@H](C=C(Cl)Cl)[C@H]1C(=O)OCc1c(F)c(F)cc(F)c1F	-22%
CCOC(=O)c1cncn1C(C)c1ccccc1 (stereo not drawn)	-14%[56.6 µM]
CC[C@@H](O)C(C[C@@H](C)N(C)C)(c1ccccc1)c1ccccc1	15%[239 µM]

The final 7 entries of the part before lead into the next.
SMILES	EPAC2 antag
CCOC(=O)[C@]12Cc3ccsc3[C@H]1N(Cc1ccccc1)C(=O)c1ccccc12	56µM*
C/C(O)=C(\C#N)C(=O)Nc1cc(Br)ccc1Br	-20%
C[C@]12Cc3nonc3C[C@@H]1CC[C@@H]1[C@@H]2CC[C@@]2(C)[C@H]1CC[C@]2(C)O	3%
CC(N)Cc1ccc(O)cc1 (stereo not drawn)	-30%
CC1(C)[C@H](C=C(Cl)Cl)[C@H]1C(=O)OCc1c(F)c(F)cc(F)c1F	-22%
CCOC(=O)c1cncn1C(C)c1ccccc1 (stereo not drawn)	-14%[56.6 µM]
CC[C@@H](O)C(C[C@@H](C)N(C)C)(c1ccccc1)c1ccccc1	15%[239 µM]
c1cncc([C@H]2CCCCN2)c1	-5%
O=c1c2ccccc2[se]n1-c1ccccc1	40µM*!
CC[C@@H](CO)NC(=O)[C@@H]1C=C2c3cccc4[nH]cc(c34)C[C@H]2N(C)C1	8%&-3%
C[C@@]12CCC(OS(=O)(=O)O)C[C@@H]1CCC1C2CC[C@]2(C)C(=O)CCC12 (stereo partly drawn)	-10%
C=CCN1CCC2(C)c3cc(O)ccc3C[C@H]1[C@H]2C	-10%
C[N+]1(C)CCCCC1COC(=O)C(O)(c1ccccc1)c1ccccc1 (stereo not drawn)	-16%
CCCCCCC(C)OC(=O)COc1ccc(Cl)cc1Cl (stereo not drawn)	-21%
C[N+]1(CCC(C(N)=O)(c2ccccc2)c2ccccc2)CCCCC1	-15%
C[C@H]1O[C@@H](O[C@H]2[C@@H](O)C[C@H](O[C@H]3[C@@H](O)C[C@H](O[C@H]4CC[C@@]5(C)[C@H](CC[C@@H]6[C@@H]5CC[C@]5(C)[C@@H](C7=CC(=O)OC7)CC[C@]65O)C4)O[C@@H]3C)O[C@@H]2C)C[C@H](O)[C@@H]1O	6%
CCN1C[C@]2(C)CC[C@H](O)[C@@]34C5C[C@@H]6[C@@H](OC)C[C@@](O)(C5[C@H]6O)[C@@H](CC23)[C@@H]14 (stereo partly drawn)	-7%&-8%
O=S1OCC2C(CO1)C1(Cl)C(Cl)=C(Cl)C2(Cl)C1(Cl)Cl (stereo not drawn)	-22%
C/C=C(/C)C(=O)OC1CC[C@]2(C)C3CCC4[C@]5(O)CC(O)[C@]6(O)C(CN7CC(C)CCC7[C@]6(C)O)[C@]5(O)C[C@@]42O[C@]13O (stereo partly drawn)	-6%
Nc1ccc(CCN2CCN(c3cccc(C(F)(F)F)c3)CC2)cc1	-32%&-20%
Cc1ccc2cc3c(ccc4ccccc43)c3c2c1CC3	1%
COC(=O)NC(=S)Nc1ccccc1NC(=S)NC(=O)OC	-10%
C[C@@H]1[C@H]2Cc3ccc(O)cc3[C@]1(C)CCN2C	48%[activator][453 µM]
Clc1ccc(C2=CCC[C@H]3CC[C@@H]2N3)cn1	-18%
O=C(CC[N+](=O)[O-])OCC1OC(O)C(OC(=O)CC[N+](=O)[O-])[C@@H](OC(=O)CC[N+](=O)[O-])C1OC(=O)CC[N+](=O)[O-] (stereo partly drawn)	-26%
NC(N)=NOCCC(N)C(=O)O (stereo not drawn)	-18%&-12%
CP(=O)(O)C1=CCNCC1	-17%&-15%
COC(=O)[C@@H](N)CCCN/C(N)=N/[N+](=O)[O-]	-1%
CCc1cc(OC)c(C[C@H](C)N)cc1OC	3%[239 µM]
O=C(NC(=O)c1c(F)cccc1F)Nc1cc(Cl)c(OC(F)(F)C(F)C(F)(F)F)cc1Cl (stereo not drawn)	?
C/C=C1/C[N@@+]2(C)CC[C@]34C(=C(C=O)[C@H]1C[C@H]32)Nc1ccccc14	-17%
CCc1cccc(C)c1N(C(=O)CCl)C(C)COC (stereo not drawn)	-16%
The list continues.
SMILES	EPAC2 antag
CCC(C)C(=O)c1c(O)c(C)c2oc3c(C)c(O)c(C(=O)C(C)CC)c(O)c3c2c1O (stereo not drawn)	-11%
C[C@@]12CCC(=O)C[C@@H]1CC[C@@H]1[C@@H]2CC[C@]2(C)C(=O)CC[C@@H]12	-13%
CN(C(=O)Cc1ccc(Cl)c(Cl)c1)C(CN1CCCC1)c1cccc(N=C=S)c1 (stereo not drawn)	?
C[C@]12CCC(=O)C=C1CC[C@@H]1[C@@H]2CC[C@]2(C)C(=O)CC[C@@H]12	-18%&-18%
NC[C@H](CS(=O)(=O)O)c1ccc(Cl)cc1	-17%
COc1cc2c(cc1OC)[C@@H]1C(=O)c3ccc4oc(C(C)C)cc4c3OC1CO2 (stereo partly drawn)	-11%
CNCCc1ccc(O)c(O)c1	1%&-7%
C[C@]12N[C@@H](Cc3ccccc31)c1ccccc12	-13%&-17%
CN1C(=O)CN=C(c2ccccc2)c2cc([N+](=O)[O-])ccc21	?
C[C@H](N)Cc1c[nH]c2ccc(OCc3cccs3)cc12	-14%
CC(N)Cc1c[nH]c2ccc(OCc3cccs3)cc12 (stereo not drawn)	2%&-22%
C=CCN1CC[C@@]23c4c5ccc(O)c4O[C@H]2/C(=N\N=C2/CC[C@@]4(O)[C@H]6Cc7ccc(O)c8c7[C@@]4(CCN6CC=C)[C@@H]2O8)CC[C@]3(O)[C@@H]1C5	-20%
COP(=S)(OC)SCN1C(=O)c2ccccc2C1=O	28%
COc1cc2c(cc1OC)[C@@H]1C(=O)c3ccc(OC)c(CC=C(C)C)c3OC1CO2 (stereo partly drawn)	?
COc1cccc(C(=O)CCN[C@@H](C)[C@H](O)c2ccccc2)c1	20%
C[C@H]1[C@H]2Cc3ccc(O)cc3[C@]1(C)CCN2CCc1ccccc1	4%[239 µM]
O=C(Nc1cccc(F)c1)N1CCC2(CC1)CCN(C(=O)Oc1ccccc1)CC2	-28%
OC(O)C(Cl)(Cl)Cl	-7%
COC1=C[C@H]2[C@H]3Cc4ccc(OC)c(O)c4[C@@]2(CCN3C)CC1=O	-12%
C[C@]12CCC(=O)C(O)=C1CC[C@@H]1[C@@H]2CC[C@]2(C)C(=O)CC[C@@H]12	-18%
C[C@@H]1C[C@@H]([C@H](O)CC2CC(=O)NC(=O)C2)C(=O)[C@@H](C)C1	19%&-9%
OCC1CCCN2CCCCC12 (stereo not drawn)	3%
CCNC(=O)[C@@H]1O[C@@H](n2cnc3c(N)ncnc32)[C@H](O)[C@H]1O	-18%
O=S(=O)(O)C(F)(F)C(F)(F)C(F)(F)C(F)(F)C(F)(F)C(F)(F)C(F)(F)C(F)(F)F	100µM*
CCOC(=O)C1(c2ccccc2)CCCN(C)CC1 (stereo not drawn)	-4%
(continued)
SMILES	EPAC2 antag
CN(C)CCc1c[nH]c2ccccc12	11%[453 µM]
CN1C(=O)CCS(=O)(=O)C1c1ccc(Cl)cc1 (stereo not drawn)	2%&-2%&-19%&3%
C=CCN1CCc2cccc3c2[C@H]1Cc1ccc(O)c(O)c1-3	-31%
ClCC1CO1 (stereo not drawn)	3%
CCCCCCCCCC(=O)O[C@H]1CC[C@H]2[C@@H]3CCC4=CC(=O)CC[C@]4(C)[C@H]3CC[C@]12C	-6%
CCOC(=O)C1(c2ccccc2)CCN(CCC(C#N)(c2ccccc2)c2ccccc2)CC1	24%[239 µM]
O=C(CCl)c1ccc(Cl)cc1Cl	5%[239 µM]
c1cc(CN2CC3(CCNCC3)C2)ccn1	?
Oc1ccc2c3c1O[C@H]1c4[nH]c5c(c4C[C@@]4(O)[C@@H](C2)N(CC2CC2)CC[C@]314)C[C@@]1(O)[C@H]2Cc3ccc(O)c4c3[C@@]1(CCN2CC1CC1)[C@H]5O4	-22%&-8%
CC(C)CN1CCC2(CC1)CCN(S(C)(=O)=O)CC2	-22%
CC1=C(O)C(=O)[C@@H]2O[C@@H]2C1=O	-13%
C[C@H](N)Cc1c[nH]c2ccc(O)cc12	-16%
CCCN(CCC)[C@@H]1CCc2cccc(O)c2C1	-3%&-21%&-12%
CCCCCCCCCCCCCCCCOC[C@@H](O)COP(=O)([O-])OCC[N+](C)(C)C	-10%[11.4 µM]
O=c1n(Cl)c(=O)n(Cl)c(=O)n1Cl	7%
C=C[C@H]1CN2CC[C@H]1C[C@H]2c1[nH]c2ccccc2c1CCO	-9%
C=CCN(C1=NCCN1)c1c(Cl)cccc1Cl	-7%&-2%
CCC1(CC)C(=O)NC(=O)N(C)C1=O	16%
O[C@@H](Cc1ccncc1)C(Cl)(Cl)Cl	-21%
